Marburg entry inh: blocks Marburg virus binding to or entry into cells; 1.8% of 300,000 active; AID 540276; Marburg virus pseudotyped entry inhibition, cell reporter; control for the full effect not named in the record; about a third of the inactives were read at about 46 µM; Potency, µM (series often up to 37.8 µM), inactives show at the highest dose activity change, negative = inhibition, actives largely listed as inhibitors; active = well fitted inhibition curve with a large enough effect; inconclusive = small, poorly fitted or top-dose-only effect, or effect the other way; inactive = flat fitted curve, though single readings scatter; tested in HEK293 cells; about a fifth of its hits are not listed in these tables; also: % is scaled to controls: 0 for no effect and ±100 for the full control effect; luciferase read-out
2A StopGo: FMDV 2A StopGo reporter, luciferase signal; human cells with a luciferase reporter of 2A StopGo recoding; control for the full effect not named in the record; Potency, µM (doses to about 57.9 µM), for inactives: at the top dose signal change, negative = less light; 1.2% of 410,000 active; active = well fitted falling curve with a large enough effect; inconclusive = small, poorly fitted or top-dose-only effect; inactive = no such curve, though single readings can be large or run the other way; tested in HEK293T cells; also: % is scaled to controls: 0 for no effect and ±100 for the full control effect; nearly all actives have a fitted effect of over 45% in size; luciferase light after 4 h
NS1 inh: inhibitors of influenza NS1 protein function. AID 2326. Potency, µM (top dose mostly 46.1 µM), for the others: at the highest dose activity, positive = more growth. 0.4% of 270,000 active. S. cerevisiae slowed by influenza A NS1, growth recovery by OD600; active means well fitted rising curve with a large enough effect; inconclusive means small, poorly fitted or top-dose-only effect; inactive means no such curve, though single readings can be large or run the other way; also: nearly all actives have a fitted effect of over 50% in size
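Compounds were scored for reversing the slow growth caused by influenza A NS1 in S. cerevisiae, measured by optical density at 600 nm. Assay medium contained 2% galactose at pH 6.0; NS1-free yeast of the same strain were the positive control.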
Cruzain inh Det: blocks cruzain activity in presence of Triton detergent. AID 1478. P25779. purified cruzain, Z-FR-AMC fluorescence, 0.01% Triton. 0.43% of 200,000 active. Potency, µM, for the others: max response, negative = inhibition, hits mostly inhibitors;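 also: plate controls were neutral wells for no effect and buffer without enzyme for full effect; nearly all actives have a fitted effect of over 40% in size; top concentration of the series not given in the record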
Target sequence (P25779 123-467 limits assumed): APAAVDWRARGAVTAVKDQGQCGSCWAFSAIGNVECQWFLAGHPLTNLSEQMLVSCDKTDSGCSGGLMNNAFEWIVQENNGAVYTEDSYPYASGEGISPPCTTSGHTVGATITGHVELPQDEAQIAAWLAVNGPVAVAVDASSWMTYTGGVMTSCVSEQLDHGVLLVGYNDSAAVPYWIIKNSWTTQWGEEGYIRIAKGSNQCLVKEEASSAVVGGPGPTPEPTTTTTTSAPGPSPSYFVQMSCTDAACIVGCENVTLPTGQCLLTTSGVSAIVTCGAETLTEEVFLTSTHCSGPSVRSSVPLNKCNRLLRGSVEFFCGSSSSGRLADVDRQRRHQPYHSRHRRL
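Z-FR-AMC hydrolysis (2 uM substrate) by cruzain (1.5 nM) monitored kinetically at ex 360/em 450 nm after 15 min room-temperature compound exposure; 0.01% Triton X-100, pH 5.5, 5 mM DTT.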
SARS PLP yeast: blocks SARS-CoV papain-like protease in a yeast assay; AID 485353; Potency, µM (titrated, usually from 32.9 µM), inactives show at the top dose activity, positive = growth rescue; S. cerevisiae expressing SARS-CoV PLpro, growth rescue; control for the full effect not named in the record; 0.19% of 330,000 active; active means well fitted rising curve with a large enough effect; inconclusive means small, poorly fitted or top-dose-only effect; inactive means no such curve, though single readings can be large or run the other way; also: 0% is about no effect; nearly all actives have a fitted effect of over 55% in size; growth read by luminescence after 48 h
LASV entry inh: Lassa virus entry inhibition. 1.2% of 300,000 active. Lassa virus pseudotype entry inhibition, cell reporter; control for the full effect not named in the record. Potency, µM (titrated, usually from 37.9 µM), for inactives: top-dose activity change, negative = inhibition, hits mostly inhibitors; active means well fitted inhibition curve with a large enough effect; inconclusive means small, poorly fitted or top-dose-only effect, or effect the other way; inactive means flat fitted curve, though single readings scatter; tested in HEK293 cells; also: % is scaled to controls: 0 for no effect and ±100 for the full control effect; nearly all actives have a fitted effect of over 50% in size; luciferase read-out
Cruzain noTriton: cruzain (T. cruzi) inhibition without detergent | P25779 | purified cruzain, Z-FR-AMC fluorescence, no detergent | Potency, µM, inactives show max response, negative = inhibition, actives largely listed as inhibitors | 2.3% of 200,000 active | AID 1476;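 also: plate controls were enzyme without inhibitor for no effect and buffer without enzyme for full effect; nearly all actives have a fitted effect of over 40% in size; top concentration of the series not given in the record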
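Detergent-free condition (0.00005% Triton X-100) in acetate buffer pH 5.5 with DTT. 1.5 nM enzyme and compound were pre-mixed 15 min, then 2 uM Z-FR-AMC substrate added; reaction progress from fluorescence change between first and third reads (60 s).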
RE007 growth inh: less growth of the S. pombe RE007 Vpr strain | Potency, µM (titrated, usually from 92.2 µM), inactives show top-dose activity change, negative = less growth | S. pombe RE007 Vpr strain, BacTiter-Glo ATP luminescence, 24 h; control for the full effect not named in the record | 0.21% of 360,000 active | AID 651644; active = well fitted falling curve with a large enough effect; inconclusive = small, poorly fitted or top-dose-only effect; inactive = no such curve, though single readings can be large or run the other way;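 also: % is scaled to controls: 0 for no effect and ±100 for the full control effect; nearly all actives have a fitted effect of over 50% in size; the assay follows cell death caused by Vpr and the record does not say whether a fall means rescue or toxicity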
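Fission yeast RE007 carrying one integrated HIV-1 vpr copy, seeded at OD 0.01 in PMG+AL medium with 23 nL pinned compound. Grown 24 h at 30 degrees; viability read by BacTiter-Glo luminescence after 5 min.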
An asterisk follows results filed as active; ? = inconclusive; . = no result given; & = joins results of further samples; ! = repeats disagree; [ ] = dose if it differs, or a comment. Unless noted, calls follow the shape of the dose curve; as a rule, active = well fitted curve in the direction sought with a large enough effect; inconclusive = small, poorly fitted or top-dose-only effect, or another doubt; inactive = no such curve, though single readings can be large; an effect the other way counts as inactive or inconclusive. Potency is read from the fitted curve at half-maximal effect.

SMILES	Marburg entry inh	2A StopGo	NS1 inh	Cruzain inh Det	SARS PLP yeast	LASV entry inh	Cruzain noTriton	RE007 growth inh
Cc1ccccc1OC/C(O)=C(\C#N)c1nc2ccccc2[nH]1	5%	.	8%	5.2%	2%	14%	20µM*	-11%
CCOC(=O)N1CCN(C(=O)C2CCCN(c3nc4ccc(OCC)cc4s3)C2)CC1 (stereo not given)	.	-17%	-31%	-7.6%	0%	.	?	10%
Cn1nc(CC(=O)Nc2ccc3c(c2)OCCO3)c2ccccc2c1=O	?	?	-7%	5.2%	6%	-29%	-6%	28%
Cc1ccc(C)c(NC(=O)CCc2c(C)nn(-c3ccc(N4CCCC4)nn3)c2C)c1	.	-7%	.	-1.1%	.	2%[46.1 µM]	26%	.
Cc1nn(CC(=O)Nc2ccc(Cl)cc2)c(=O)c2cc(-c3ccccc3)nn12	?	64%[activator]	6%	.	-3%	-20%[46.1 µM]	.	-7%
CCOC(=O)c1ccccc1NC(=O)CSc1nc(N)cc(=O)[nH]1	27%[46.1 µM]	-12%	5%	.	1%	2%	.	-14%
CC(C)N(C(=O)Nc1ccc2nccnc2c1)C(C)C	22%	-3%	-5%	2.1%	-1%	4%	-3%	-11%
Cc1cnc2cc(Cl)c(Cl)cc2n1	6%	-2%	13%	-2.8%	-12%	13%	-24%	0%
CCCc1cc(C(=O)Nc2cccc3ccccc23)n(C)n1	-40%[46.1 µM]	-19%	-23%	.	-2%	?	.	9%
CCCCNC(=O)[C@H](CSCc1ccccc1)N1Cc2ccccc2C1=O	-3%	9%	-60%	-4.6%	3%	15%	9%	18%
c1ccc(CCCCc2ccncc2)cc1	?	-11%	.	.	.	-10%[46.1 µM]	.	7%
CC(=O)Oc1ccc(C(=O)Nc2ccccc2NC(=O)c2ccc(OC(C)=O)cc2)cc1	.	-22%	4%	.	2%	.	.	-4%
CN(Cc1ccco1)C(=O)CN1C(=O)NC2(CCCC2)C1=O	13%[46.1 µM]	13%	.	.	7%	18%[46.1 µM]	.	4%
O=C(/C=C/Nc1ccc(F)cc1F)c1ccco1	?	-83%	-7%	.	-1%	.	.	-1%
COc1ccc(CC2(CO)CCN(C(C)COc3ccccc3)CC2)cc1 (stereo not given)	.	-4%	-3%	.	-2%	-27%	.	-2%
COC[C@H]1OC(=O)c2coc3c2[C@@]1(C)C1=C(C3=O)C2CCC(=O)[C@@]2(C)C[C@H]1OC(C)=O (stereo not given in full)	0.045µM*!	?	14%	-7.4%&-2.6%	.	?	2%&0%	.
CCN(CC(=O)NCc1ccc(F)cc1)CC(=O)Nc1ccccc1-c1ccccc1	?	-17%	.	.	-5%	-6%	.	10%
COc1ccc(C2SCC(=O)Nc3c2c(C)nn3-c2ccccc2)cc1 (stereo not given)	-13%	-17%	-5%	2.3%	12%	-13%	-3%	29%
COc1ccc(C(=O)NC(=S)N2CC(C)OC(C)C2)cc1 (stereo not given)	0%	-13%	9%	-2.4%	-18%	4%	-2%	16%
COc1ccc(CCC(C)NC2C3CC4CC(C3)CC2C4)cc1 (stereo not given)	19%	-9%	-4%	4.8%	-3%	?	-7%	1%
O=C(NC12CC3CC(CC(C3)C1)C2)N1CCN(S(=O)(=O)c2ccc(Cl)cc2)CC1	?	-14%	-103%	-3.4%	-4%	3%	9%	-14%
COc1ccc(S(=O)(=O)N(CCc2ccccc2)CC(=O)N/N=C/c2ccc3c(c2)OCO3)cc1	?	-1%	20%	-5.0%	3%	?	?	-3%
Cn1c2ccccc2c2cnn(CC(=O)NCc3ccc(Cl)cc3)c(=O)c21	?	1%	.	-1.4%	.	-1%[46.1 µM]	1%	.
CCc1ccc(NC(=O)CCn2ccnc2C)cc1	-8%[46.1 µM]	-6%	-10%	0.1%	5%	0%	3%	-17%
COc1ccc(CNC(=O)c2cc(C(C)=O)c[nH]2)cc1	-1%[46.1 µM]	-2%	-6%	.	0%	-24%[46.1 µM]	.	3%
Cc1ccc(CNC(=O)Cc2nc3nc(C)cc(C)n3n2)cc1	?	0%	4%	1.2%	-20%	-10%	-5%	-1%
CC(=O)Oc1cccc(Nc2ncnc3ccccc23)c1	.	-8%	-15%	.	3%	.	.	-12%
C/C(=N\Nc1nc(N2CCOCC2)nc(N2CCOCC2)n1)c1cccs1	-27%[46.1 µM]	-16%	.	.	-1%	-22%	.	-13%

Structures from the list above with four or more nitrogen atoms, in the order listed:
SMILES	Marburg entry inh	2A StopGo	NS1 inh	Cruzain inh Det	SARS PLP yeast	LASV entry inh	Cruzain noTriton	RE007 growth inh
CCOC(=O)N1CCN(C(=O)C2CCCN(c3nc4ccc(OCC)cc4s3)C2)CC1 (stereo not given)	.	-17%	-31%	-7.6%	0%	.	?	10%
Cc1ccc(C)c(NC(=O)CCc2c(C)nn(-c3ccc(N4CCCC4)nn3)c2C)c1	.	-7%	.	-1.1%	.	2%[46.1 µM]	26%	.
Cc1nn(CC(=O)Nc2ccc(Cl)cc2)c(=O)c2cc(-c3ccccc3)nn12	?	64%[activator]	6%	.	-3%	-20%[46.1 µM]	.	-7%
CCOC(=O)c1ccccc1NC(=O)CSc1nc(N)cc(=O)[nH]1	27%[46.1 µM]	-12%	5%	.	1%	2%	.	-14%
CC(C)N(C(=O)Nc1ccc2nccnc2c1)C(C)C	22%	-3%	-5%	2.1%	-1%	4%	-3%	-11%
Cn1c2ccccc2c2cnn(CC(=O)NCc3ccc(Cl)cc3)c(=O)c21	?	1%	.	-1.4%	.	-1%[46.1 µM]	1%	.
Cc1ccc(CNC(=O)Cc2nc3nc(C)cc(C)n3n2)cc1	?	0%	4%	1.2%	-20%	-10%	-5%	-1%
C/C(=N\Nc1nc(N2CCOCC2)nc(N2CCOCC2)n1)c1cccs1	-27%[46.1 µM]	-16%	.	.	-1%	-22%	.	-13%

Random excerpt: three compounds from above.
SMILES	Marburg entry inh	2A StopGo	NS1 inh	Cruzain inh Det	SARS PLP yeast	LASV entry inh	Cruzain noTriton	RE007 growth inh
Cc1ccccc1OC/C(O)=C(\C#N)c1nc2ccccc2[nH]1	5%	.	8%	5.2%	2%	14%	20µM*	-11%
COc1ccc(C(=O)NC(=S)N2CC(C)OC(C)C2)cc1 (stereo not given)	0%	-13%	9%	-2.4%	-18%	4%	-2%	16%
CN(Cc1ccco1)C(=O)CN1C(=O)NC2(CCCC2)C1=O	13%[46.1 µM]	13%	.	.	7%	18%[46.1 µM]	.	4%

Source: PubChem BioAssay
